Screens (PubChem BioAssay)
N370S GC mod – qHTS Assay for Inhibitors and Activators of N370S glucocerebrosidase as a Potential Chaperone Treatment of Gaucher Disease; N370S GC spleen homogenate, 4MU-glucoside fluorescence; Potency, µM (titrated, usually from 59.4 µM), for the others: at the highest dose activity change, negative = inhibition, most hits filed as inhibitors; 0.092% of 330,000 active; AID 2101, 2009;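 note: 0% = full enzyme activity and -100% = no enzyme basal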
FEN1 inhibitor – qHTS Assay for the Inhibitors of Human Flap endonuclease 1 (FEN1) | P39748 | Recombinant FEN1 flap cleavage, fluorescence, 15 min | Potency, µM (titrated, usually from 114 µM), inactives show at the top dose activity change, negative = inhibition, hits mostly inhibitors | 0.35% of 390,000 active | AID 588795, 2011; note: nearly all actives have a fitted effect of over 65% in size
Target sequence (P39748 whole entry, looked up): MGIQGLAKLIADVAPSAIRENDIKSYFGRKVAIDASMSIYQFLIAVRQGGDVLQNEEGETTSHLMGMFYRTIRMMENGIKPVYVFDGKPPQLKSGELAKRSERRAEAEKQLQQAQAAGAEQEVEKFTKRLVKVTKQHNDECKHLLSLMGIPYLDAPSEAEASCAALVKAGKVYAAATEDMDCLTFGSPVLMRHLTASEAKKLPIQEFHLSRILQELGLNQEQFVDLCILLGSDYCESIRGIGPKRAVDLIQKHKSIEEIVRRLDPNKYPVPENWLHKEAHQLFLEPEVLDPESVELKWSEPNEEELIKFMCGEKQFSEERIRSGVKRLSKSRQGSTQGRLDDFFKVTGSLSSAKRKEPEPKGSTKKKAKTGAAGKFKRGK
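FEN1 at 10 nM preincubated with compounds 15 min at room temperature, then flap DNA substrate added at 50 nM final. Signal read at 0 and 15 min; concentration-response fitted with four-parameter Hill equation.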
* hit, by the source's call; ? = inconclusive; · = no result given. Calls come from the whole dose curve; as a rule, active = well fitted curve in the direction sought with a large enough effect; inconclusive = small, poorly fitted or top-dose-only effect, or another doubt; inactive = no such curve, though single readings can be large; an effect the other way counts as inactive or inconclusive. Unless noted, % is set by controls: 0 for no effect and ±100 for the full control effect; potency is the fitted concentration of half-maximal effect. A portion of the library, and most or all hits are left out here.

structure	N370S GC mod	FEN1 inhibitor
O=C(Nc1ccc(F)cc1F)N1CCCN(CCOc2ccccc2)CC1	2%	2%
O=C(Nc1nnc(-c2cccs2)o1)c1ccco1	5%	-3%
CCOC(=O)c1ccc(S(=O)(=O)Nc2ccc3cn[nH]c3c2)cc1	-5%	0%
Cc1ccc(CN2CCN(/N=C/c3cc([N+](=O)[O-])ccc3Cl)CC2)cc1	0%	-1%
CN(CC(=O)Nc1ccccc1Br)C(=O)COc1ccc2ccccc2c1	·	-16%
Cc1nc(C)n(CC(=O)c2ccc(Cl)cc2Cl)n1	3%	-1%
Cc1cccc(N(C(=O)CNC(=O)c2ccco2)C(C(=O)NC2CCCC2)c2cccnc2)c1 (stereo not given)	4%	6%
COc1ccccc1OCCCn1c(=O)oc2ccccc21	-8%	8%

Other records
structure	N370S GC mod	FEN1 inhibitor
COc1cc(-c2nnc(CSc3nnc(Nc4ccc(Oc5ccccc5)cc4)s3)o2)cc(OC)c1OC	8%	-16%
C[C@H](CO)N1C[C@H](C)[C@@H](CN(C)S(=O)(=O)c2ccccc2)Oc2c(NS(=O)(=O)c3ccccc3)cccc2C1=O	·	-1%
CCOC(=O)C1CCCN(c2nc3c(S(=O)(=O)c4ccc(C)c(C)c4)nnn3c3ccc(Cl)cc23)C1 (stereo not given)	·	17%
Cc1c(-c2ccccc2)oc2c(C(=O)OCC(=O)Nc3ccc(F)cc3)cccc2c1=O	12%	17%
Cn1cc(CNCc2cnc3ccccn23)c(-c2ccc(Oc3ccccc3)cc2)n1	?	9%
COc1ccc(C2CC(c3cccs3)=NN2C(=O)CN2CCCCC2)cc1 (stereo not given)	-7%	-1%
O=C(NCc1nnc(SCc2ccccc2)n1-c1ccc(F)cc1)C12CC3CC(CC(C3)C1)C2	-1%	-13%
CN(C)C(=O)CSc1nnc(Cc2ccc3c(c2)OCO3)o1	3%	-1%

The list goes on.
structure	N370S GC mod	FEN1 inhibitor
O=C(NC1CCCCC1)c1ccc2c(c1)N(Cc1cccc(F)c1)C(=O)c1ccccc1S2	·	-14%
CCOC(=O)c1cc(C)nc(Sc2ccc(C)cc2)c1C#N	-7%	-18%
O=C(Nc1ccc(S(=O)(=O)Nc2nccs2)cc1)c1ccc(S(=O)(=O)N2CCOCC2)cc1	6%	-10%
CCCCn1nnc(NC(=O)c2ccco2)n1	7%	2%
FC(F)(F)c1cccc(/C=N/NC(=S)NC2CCCCC2)c1	-12%	-2%
Oc1ccccc1CNCc1ccccc1	0%	-1%
CCOC(=O)CSc1nnc(CNC(=O)c2ccc(S(=O)(=O)N3CCCCC3)cc2)n1C	8%	-5%
O=C(Nc1ccc2c(c1)OCCO2)c1c(F)cccc1F	-2%	-16%

Additional records
structure	N370S GC mod	FEN1 inhibitor
CCc1ccccc1NC(=O)c1ccc2snnc2c1	-9%	12%
CCCCC1=CC2=CC(=O)C(C)(OC(=O)CC)C(=O)C2=CO1 (stereo not given)	-6%	?
COc1ccc(C2=C(N3CCN(c4cc(C)ccc4C)CC3)c3ccccc3C2=O)cc1	·	5%
O=C(NC(=S)NCc1ccccc1Cl)c1cccs1	·	-15%
O=C(CC(Cc1ccccc1)C(=O)O)NCCc1ccc2c(c1)OCO2 (stereo not given)	5%	-10%
C=CCn1c(SCc2nc3sc4c(c3c(=O)[nH]2)CCCC4)nc2ccccc2c1=O	7%	-1%
CCN(CC)CCNc1nc(-c2ccc(OC)cc2)c(-c2ccc(OC)cc2)s1	-16%	-1%
COc1cc(-c2noc(-c3cccs3)n2)cc(OC)c1OC	1%	4%

Continued.
structure	N370S GC mod	FEN1 inhibitor
CN(C)C(=O)c1cc2cc([N+](=O)[O-])ccc2s1	3%	3%
CCCCn1nnc(NC(=O)c2ccc(-c3ccccc3)cc2)n1	-1%	0%
COc1ccc(OC)c(NC(=S)NCc2ccccc2OC)c1	9%	-15%
COc1cccc(NC(=O)CSc2ccc3nnc(CCNC(=O)c4ccccc4)n3n2)c1	17%	-5%
COc1ccc(CNC(=O)C(c2ccc(C)cc2)N(Cc2cccs2)C(=O)c2ccc3c(c2)OCCO3)cc1 (stereo not given)	-10%	-3%
Cc1ccc(COc2ccccc2-c2cc(C(=O)N/N=C/c3cccnc3)[nH]n2)cc1	-1%	-1%
CC/S(C)=N/S(=O)(=O)c1ccc(C)cc1 (stereo not given)	-5%	-2%
CCOCCCNc1ncnc2c1cnn2-c1ccc(C)c(C)c1	·	-10%

Next section.
structure	N370S GC mod	FEN1 inhibitor
COc1cccc(NC(=O)Cn2nc3c4ccccc4n(Cc4cccc(F)c4)cc-3c2=O)c1	·	-6%
CCOCCn1ccc2c(OCC(=O)Nc3cc(C(F)(F)F)ccc3Cl)cccc2c1=O	·	-4%
CCCNS(=O)(=O)c1ccc(CCC(=O)Nc2cc(Cl)ccc2Oc2ccccc2)cc1	7%	-7%
CC(C)C[C@H](NC(=O)C1(c2ccccc2)CCN(C(=O)[C@H]2CSCN2C(=O)OC(C)(C)C)CC1)C(=O)O	-11%	-2%
CC(C(=O)NCc1ccccc1F)n1ccc2cc(S(=O)(=O)N3CCCC3)ccc21 (stereo not given)	·	6%
C=CCn1c(CCCNC(=O)CCC)nc2ccccc21	11%	-5%
COc1ccc(CC(=O)Nc2c3c(nn2C(C)(C)C)CS(=O)C3)cc1 (stereo not given)	10%	-16%
COc1ccc(CCNC(=O)CSc2nnnn2-c2ccccc2)cc1	-3%	5%

(further entries)
structure	N370S GC mod	FEN1 inhibitor
CN(c1ccccc1C(=O)N1CCCC1)S(C)(=O)=O	6%	2%
CCCOc1cccc(-c2cc(-c3n[nH]c(=S)n3CC)c3ccccc3n2)c1	7%	-20%
C/C=C\C(=O)Nc1cccc(C2=NOC3(C2)C[C@@H](C(N)=O)N(C(=O)COc2ccc(Cl)cc2)C3)c1 (stereo not given in full)	2%	-4%
O=C(O)CCn1[nH]c(=O)c2ccccc2c1=O	-1%	-13%
CCS(=O)(=O)c1ccc2oc(SCC(=O)N3c4ccccc4CC3C)nc2c1 (stereo not given)	4%	-4%
Cc1[nH]c2ccc(C(=O)OC(C)C(=O)N(C)c3ccccc3)cc2c1C (stereo not given)	1%	-17%
Cc1nc2ccccc2c2c1C(=O)N(C(C)C)C2=O	-4%	-1%
O=c1c2oc3ccccc3c2ncn1Cc1ccccc1Cl	14%	-17%

Whole records as entered above. Order of values: N370S GC mod | FEN1 inhibitor
`COc1cc(-c2noc(-c3cccs3)n2)cc(OC)c1OC` is listed as 1% | 4%
`Cc1nc(C)n(CC(=O)c2ccc(Cl)cc2Cl)n1` is listed as 3% | -1%
`CCS(=O)(=O)c1ccc2oc(SCC(=O)N3c4ccccc4CC3C)nc2c1` (stereo not given) is listed as 4% | -4%

The list goes on:
structure	N370S GC mod	FEN1 inhibitor
CCOC(=O)N1CCN(S(=O)(=O)N2CCCC(C(=O)NCc3ccccc3Cl)C2)CC1 (stereo not given)	4%	-2%
CCOC(=O)C1CCCN(Cc2nc(N)nc(Nc3ccccc3OC)n2)C1 (stereo not given)	-5%	10%
O=C(COc1cccc(-n2cnnn2)c1)Nc1ccccc1	6%	-1%
C=C(C)c1cccc(C(C)(C)NC(=O)Nc2ccc(Cl)cn2)c1	30%	6%
CCN(Cc1ccccc1)C(=O)CCCOc1ccccc1	2%	1%
Cc1ccc2c(c1)c(=O)c(S(=O)(=O)c1ccc(F)cc1)cn2CC(=O)Nc1ccc2c(c1)OCO2	·	-1%
CN=C(NC1CCCCC1)c1ccc(Cl)cc1	-12%	10%
O=S(=O)(NC1=NCCC1)c1cccc(NS(=O)(=O)c2ccc(F)c(Cl)c2)c1	·	-4%

Following part:
structure	N370S GC mod	FEN1 inhibitor
CCOC(=O)c1c(NC(C)=O)sc2c(OC)cccc12	-15%	-9%
Cc1ccc(NC(=O)CS(=O)CC(=O)N(c2ccccc2F)C(C)C(=O)NC2CCCC2)cc1 (stereo not given)	-2%	32%
CCn1cc(NC(=O)CCl)c(C)n1	0%	·
CCOC(=O)c1ccc(NC(=O)C2CC(=O)N(c3ccc(C(C)C)cc3)C2)cc1 (stereo not given)	·	10%
CCC(=O)N/C=C/n1cnc2cc(C(F)(F)F)ccc21	-5%	11%
CC(=O)C1=C(O)C(=O)N(c2ccc(C(=O)O)cc2)C1c1ccc([N+](=O)[O-])cc1 (stereo not given)	4%	17%
CN1CCN(S(=O)(=O)c2cccc(C(=O)N3CCc4ccccc43)c2)CC1	3%	-9%
O=c1c2cnn(-c3ccccc3)c2ncn1Cc1ccco1	16%	-3%

More records follow.
structure	N370S GC mod	FEN1 inhibitor
Cc1ccc(-n2nnc3c(=O)n(Cc4cc(C)ccc4C)cnc32)cc1	5%	0%
O=C(CCCN1C(=O)CCC1=O)Nc1ccc(Cl)c(C(F)(F)F)c1	9%	-7%
CC(C)NC(=O)NC(=O)CSc1nncs1	-2%	-2%
COc1cccc(OC)c1C(=O)Nc1ccc(C(=O)NCc2ccccc2)cc1	-6%	0%
Cc1cc(SCc2cccc(C(F)(F)F)c2)nc(=O)[nH]1	-1%	-3%
CN(C)c1ncnc2ccc(-c3ccccc3C#N)cc12	8%	·
CC1CCCCN1CC(=O)NC(c1ccccc1)c1ccccc1 (stereo not given)	6%	14%
CCC(C)(C(=O)Nc1ccccc1C)N(C(=O)CNC(C)=O)c1ccccc1C (stereo not given)	-9%	5%

The listing continues:
structure	N370S GC mod	FEN1 inhibitor
O=C(COc1ccccc1-c1ccccc1)N/N=C/c1ccncc1	-13%	-5%
Cc1ccc2c(c1)NC(=O)C(CC(=O)NCCCN1CCCC1)O2 (stereo not given)	-3%	-4%
O=C1[C@H]2CC3C=CC2(O3)[C@@H]2OCCCN12 (stereo not given in full)	-1%	4%
CCOc1cc(C(=O)OCC(=O)Nc2ccc(F)cc2Cl)ccc1OCC(=O)N1CCOCC1	-1%	-7%
CCOc1ccccc1N(CC(=O)NC1CCCCC1)S(=O)(=O)c1ccccc1	29%	-11%
COc1ccc(C2N=C(N)N=C(N)N2c2ccccc2OC)cc1OC (stereo not given)	4%	-4%
O=C(/C=C\c1ccccc1[N+](=O)[O-])Nc1ccccc1	19%	18%
Cc1sc2nc(N3CCOCC3)[nH]c(=O)c2c1-c1ccccc1	-4%	0%

(listing goes on)
structure	N370S GC mod	FEN1 inhibitor
Cc1c(C)n(CC(O)CNCCO)c2ccccc12 (stereo not given)	-13%	3%
Cn1cnc(S(=O)(=O)NCc2ccccc2)c1	-12%	1%
COc1ccc(C(=O)c2c[nH]cc2-c2ccccc2)cc1	6%	2%
C=CCn1c(SCC(=O)Nc2ccc3c(c2)OCO3)nnc1-c1ccccc1	?	-1%
O=C1NCCCC1C(=O)Nc1ccccc1C(F)(F)F (stereo not given)	3%	-4%
CC(C)(C)OC(=O)N1CCCC1C(=O)NC1COC2CC(n3ccc(=O)[nH]c3=O)OC12 (stereo not given)	-7%	-2%
COCCn1nnnc1C(c1cccs1)N1CCCC(C)C1 (stereo not given)	-5%	-2%
COc1cc(CNC2CCCCCCC2)cc(Br)c1OCC#N	-27%	-3%

The list goes on.
structure	N370S GC mod	FEN1 inhibitor
Cc1cccc(NC(=O)C(C)N2C(=O)c3ccccc3S2(=O)=O)n1 (stereo not given)	2%	-1%
CCCn1c(SCC(=O)N2CCCc3ccccc32)nnc1-c1ccco1	4%	-4%
CC1CCC2(CC1)NC(=O)N(NC(=O)CCl)C2=O (stereo not given)	21%	1%
CCOC(=O)c1cc(OC(=O)c2ccc(OC)cc2)n(-c2ccccc2)n1	·	-7%
O=C(NC1(C(F)(F)F)N=C2SCCN2C1=O)c1cccnc1 (stereo not given)	0%	-5%
CC1CCCCN1C(=O)c1ccc(CS(=O)(=O)Cc2ccccc2)cc1 (stereo not given)	-19%	6%
COc1ccc(N2CCN(S(=O)(=O)c3cc(C)ccc3OC)CC2)cc1	-3%	-4%
CC(=O)Nc1ccc(S(=O)(=O)Nc2ccccc2C(=O)N2CCCCC2)cc1	-4%	-1%

(further entries)
structure	N370S GC mod	FEN1 inhibitor
CCn1ncc(CN2CCC(Oc3ccc(C(=O)N4CCCC4)cc3)CC2)c1C	-3%	2%
CC(OC(=O)Cn1[nH]c(=O)c2ccccc2c1=O)C(=O)c1ccccc1 (stereo not given)	-5%	17%
CCOc1ccc(NC(=O)CN(C)C(=O)c2cc(S(=O)(=O)N(C)C)ccc2N2CCCC2)cc1OCC	-2%	-2%
O=C(O)c1ccc(Cn2c(SCc3ccc(F)cc3)nc3ccncc32)cc1	·	2%
O=C(O)/C=C/C(=O)Nc1ccc(OC(F)(F)F)cc1Br	-6%	6%
O=C1CC(c2c(F)cccc2Cl)c2c(ccc3ccccc23)N1 (stereo not given)	·	-10%
CN(CC(=O)Nc1cccc(F)c1)C(=O)c1ccc(OCC2CCCO2)cc1 (stereo not given)	-19%	5%
CCOc1cc(C(=O)OCC(=O)Nc2cccc(S(=O)(=O)NC3=NCCCCC3)c2)cc(OCC)c1OCC	·	-16%
O=C(CSc1nc(=O)n(Cc2ccncc2)c2c1CCC2)Nc1ccc(F)cc1F	·	-5%
COc1ccc(N2CCN(C(CNC(=O)CC(C)(C)C)c3ccc4c(c3)OCO4)CC2)cc1 (stereo not given)	-9%	13%
Cc1nn(Cc2ccccc2)c(Cl)c1/C=N/NC(=O)CNc1cccc(C(F)(F)F)c1	7%	3%
